NPYLR7 agonist = mosquito NPYLR7 agonism; HEK293T NPYLR7/Galpha15, GCaMP6s calcium fluorescence; activation, % at 10 µM; hit rate 0.15% among 270,000; AID 1259423; in the data active = activation above about 40%;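 note: 0% = vehicle and 100% = reference agonist at the receptor; some compounds past the cut are filed as inactive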
NPYLR7 agonist max-min = further read-out of NPYLR7 agonist, marked with its call; activation, %; measured here: Max-Min RFU normalised activation; some inactives read as strong as hits;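 span of the calcium signal over five minutes; 0% = vehicle and 100% = native peptide agonist; compound fluorescence can raise it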
Active calls of the source: *; & = joins results of further samples. A portion of the library. The share of hits here may be higher or lower than overall.

#1 CC1CN(c2cc(Cl)nc(SCC(=O)NCCCN3CCOCC3)n2)CCN1C(=O)CC(C)(C)C (stereo not given)
#2 COc1ccc(CC(=O)N2CCOC(COc3cccc(C(F)(F)F)c3)C2)cc1F (stereo not given)
#3 CC(C)c1cccc(OS(=O)(=O)c2ccc(Cl)s2)c1
#4 Nc1ncnc(NN=Cc2c[nH]c3ccccc23)c1[N+](=O)[O-]
#5 CC1CN(c2ccccc2)CCN1C(=O)CCn1cccc1 (stereo not given)
#6 CCOCCc1nnc(NC(=O)c2cccc(OCC)c2)s1
#7 Cc1ccsc1CN(C)C(=O)CCc1nnc(COc2ccccc2)o1
#8 Cc1ccccc1-c1nc(CN2CC[C@@H](c3sccc3C)[C@H](O)C2)c(C)o1
#9 COc1ccc(-c2nnc(SCC(=O)N/N=C(/C)c3ccco3)n2-c2ccccc2)cc1OC
#10 CC(C)(C)CC(=O)Nc1c(-c2ccc(Cl)cc2)nc2ccccn12
assay / entry,1,2,3,4,5,6,7,8,9,10
NPYLR7 agonist,16.3,11.3,2.5,2.1,0.8,-11.1,0.9,2.5,9.4,-3.1
NPYLR7 agonist max-min,23.2,20.7,1.6,22.4,-18.6,-17.5,-0.4,-1.4,17.4,-1.2

#11 C=CC[C@@H]1CC=C[C@@H](c2ccccc2)N1C(=O)c1ccc(=O)n(C)c1
#12 COc1cc2c(cc1OC)C(c1ccccc1Cl)N(C(=O)c1c(F)cccc1Cl)CC2 (stereo not given)
#13 COc1ccc(C(=O)Nc2nc(-c3ccc(I)cc3)cs2)cc1OC
#14 CCOC(=O)C1=C(C)N=c2s/c(=C\c3ccc(C(C)C)cc3)c(=O)n2C1c1ccc(OC)cc1 (stereo not given)
#15 CCN1C(=O)N(CCc2ccccc2)C2(CCN(Cc3cccn3-c3ccc(Cl)cn3)CC2)C1=O
#16 Cc1cc(C(F)(F)F)c(C#N)c(SCC(N)=O)n1
#17 O=C(c1ccccc1SC(F)F)N1CCN(c2ncnc3c2nnn3-c2ccc(F)cc2)CC1
#18 O=C(c1ccc(=O)[nH]c1)N1CCC(CCn2cccn2)CC1
#19 CCOC(=O)C1(CC2CC2)CCN(C(=O)c2ccc(N3CCCCC3)cc2)CC1
#20 CC(C)c1noc(CN2CCCC(C3(C)NC(=O)NC3=O)C2)n1 (stereo not given)
assay / entry,11,12,13,14,15,16,17,18,19,20
NPYLR7 agonist,17.4,12.1,8.3,16.8,-0.2,-5.8&-4.1,-6.9,2.9,-0.9,1.6
NPYLR7 agonist max-min,13.7,3.3,7.1,7.9,-8.4,3.0&-4.5,-17.4,1.9,3.1,-1.7

#21 CCOc1ccc(-c2ccnc(N3CCN(C(=O)CCC4CCCC4)CC3)n2)cc1
#22 Cc1cc(C2CCC2)nc(NC(c2ncccc2C)C2CC2)n1 (stereo not given)
#23 O=C(C1=C(O)C(=O)N(CCN2CCOCC2)C1c1cccc([N+](=O)[O-])c1)c1ccco1 (stereo not given)
#24 CCN(C(=O)c1ccc2oc(C)cc2c1)C1CCOC(C)(C)C1 (stereo not given)
#25 Cc1cc(C(=O)NCC(=O)Nc2ccc(F)cn2)c(C)o1
#26 COC(=O)C1=C(C)NC2=C(C(=O)CC(c3ccccc3)C2)C1c1cc(Br)c(O)c(OC)c1 (stereo not given)
#27 O=C(c1ccc(F)cc1)c1c[nH]c2cc3c(cc2c1=O)OCO3
#28 CC(Nc1cccc(NS(=O)(=O)c2ccc(Cl)cc2)c1)C(=O)N1CCOCC1 (stereo not given)
#29 Cc1ccc(S(=O)(=O)NC2CC2)cc1C(=O)N1CCc2cccc(C)c21
#30 CSCc1nnc(SCc2cc3c(cc2Br)OCCO3)o1
assay / entry,21,22,23,24,25,26,27,28,29,30
NPYLR7 agonist,23.1,6.7,14.9,4.5,-0.6,-1.3,-2.2,0.3,-1.3,1.6
NPYLR7 agonist max-min,24.4,1.8,18.5,4.6,15.5,-3.6,0.6,-2.2,-2.5,-2.0

Ordered by molar mass (low to high): part of the list above
#18 O=C(c1ccc(=O)[nH]c1)N1CCC(CCn2cccn2)CC1
#22 Cc1cc(C2CCC2)nc(NC(c2ncccc2C)C2CC2)n1 (stereo not given)
#27 O=C(c1ccc(F)cc1)c1c[nH]c2cc3c(cc2c1=O)OCO3
#24 CCN(C(=O)c1ccc2oc(C)cc2c1)C1CCOC(C)(C)C1 (stereo not given)
#20 CC(C)c1noc(CN2CCCC(C3(C)NC(=O)NC3=O)C2)n1 (stereo not given)
#29 Cc1ccc(S(=O)(=O)NC2CC2)cc1C(=O)N1CCc2cccc(C)c21
#30 CSCc1nnc(SCc2cc3c(cc2Br)OCCO3)o1
#21 CCOc1ccc(-c2ccnc(N3CCN(C(=O)CCC4CCCC4)CC3)n2)cc1
#28 CC(Nc1cccc(NS(=O)(=O)c2ccc(Cl)cc2)c1)C(=O)N1CCOCC1 (stereo not given)
#17 O=C(c1ccccc1SC(F)F)N1CCN(c2ncnc3c2nnn3-c2ccc(F)cc2)CC1
#26 COC(=O)C1=C(C)NC2=C(C(=O)CC(c3ccccc3)C2)C1c1cc(Br)c(O)c(OC)c1 (stereo not given)
assay / entry,18,22,27,24,20,29,30,21,28,17,26
NPYLR7 agonist,2.9,6.7,-2.2,4.5,1.6,-1.3,1.6,23.1,0.3,-6.9,-1.3
NPYLR7 agonist max-min,1.9,1.8,0.6,4.6,-1.7,-2.5,-2.0,24.4,-2.2,-17.4,-3.6

Carrying on:
#31 COc1cn(CC(=O)NC(C)(C)C)c(CN2CCCCCC2)cc1=O
#32 Cc1cccn2c(=O)cc(OCC(=O)N3CCc4ccccc43)nc12
#33 O=C(Nc1ccc(OC(F)F)c(Cl)c1)N1CCN(C2CC2)CC1
#34 O=C(NC1CC1)C1CCCN1Cc1ccc(F)c(Br)c1 (stereo not given)
#35 Nc1ccc(C(=O)Nc2ccc(Nc3cnc(-c4ccc(OC(F)(F)F)cc4)cn3)cc2)cc1
#36 COCCOCc1cccc(NC(=O)N(C)C(C)c2ccc(C)cc2)c1 (stereo not given)
#37 C=CCn1c(SCC(=O)N(C)Cc2ccccc2)nc2ccsc2c1=O
#38 Cc1cccc2c(NCc3ccccc3F)nc(CNC(=O)CN3CC(c4ccccc4)CC3=O)nc12 (stereo not given)
#39 O=C(c1cscn1)N1CCC(c2n[nH]c(=O)n2Cc2ccccc2)CC1
#40 CCOc1cccc(/C=C2/SC(=Nc3ccccc3Cl)NC2=O)c1O
assay / entry,31,32,33,34,35,36,37,38,39,40
NPYLR7 agonist,0.3,-5.6,4.2,5.9&4.7,2.0,-1.1,-5.6,15.3,24.0,-6.8
NPYLR7 agonist max-min,-0.6,-1.7,0.4,0.1&4.7,0.8,-7.7,25.9,4.3,13.9,-9.1

#41 CN1CCC(C(=O)Nc2ncn(Cc3ccccc3)n2)CC1=O (stereo not given)
#42 CCN(CC)c1ncccc1CNCc1cccc(Cl)c1
#43 c1cncc(Oc2ccccc2-n2cnnc2)c1
#44 O=C(NCc1ccccc1C(F)(F)F)c1cc(COc2ccc(F)cc2F)on1
#45 CC(CNS(=O)(=O)c1cnccc1Cl)N1CCOCC1 (stereo not given)
#46 Cc1ccc(C(C2Sc3nc(-c4ccco4)nn3C2=O)N2CCC(C(N)=O)CC2)cc1 (stereo not given)
#47 c1ccc2c(c1)nc1[nH]nc(SCc3nnc(-c4cc5c(s4)CCCC5)o3)n12
#48 C=CCn1c(=O)c2c(nc3n(CCN4CCOCC4)c(C)c(C)n23)n(C)c1=O
#49 COCCNc1nc(Oc2cccc(F)c2)c2sccc2n1
#50 CCc1ccc(C(=O)N2CCSC2c2ccc(F)cc2F)cc1 (stereo not given)
assay / entry,41,42,43,44,45,46,47,48,49,50
NPYLR7 agonist,7.0&-1.3,17.2,8.7,8.3,4.1,-3.3,5.0,-1.6,6.1,-4.3
NPYLR7 agonist max-min,2.9&-1.4,5.1,-5.8,5.8,2.3,-3.4,4.5,8.7,0.7,5.0

#51 CC1CN(C(C)C)CC1NS(=O)(=O)N(C)C1CCOCC1 (stereo not given)
#52 COc1ccccc1C(C)N(C)S(=O)(=O)N1CCCC(C)C1 (stereo not given)
#53 CC(C)(C)NC(=O)CSC(=Nc1ccc(F)cc1)NC#N
#54 c1ccc2[nH]c(CCC3CCCCC3)nc2c1
#55 O=C(CCc1nnc(C2(c3ccc(Cl)cc3)CCC2)o1)NCc1cccc2[nH]ccc12
#56 O=[N+]([O-])c1ccc2[nH]c(O)c(N=Nc3ccnc4cc(Cl)ccc34)c2c1
#57 O=C(NCC1CCCO1)c1cccnc1N1CCN(C(=O)c2c(F)cccc2Cl)CC1 (stereo not given)
#58 CC(=O)N1CCN(CC(=O)N2N=C(c3ccc(C)cc3)CC2c2ccccc2)CC1 (stereo not given)
#59 Cc1cc(C)c(OS(=O)(=O)CCCF)c(C)c1
#60 CN(Cc1cc(-c2ccccc2)n[nH]1)C(=O)c1cn(C2CCCCCC2)nn1
assay / entry,51,52,53,54,55,56,57,58,59,60
NPYLR7 agonist,0.9,7.5,8.0,-5.0,7.3,-5.9,-6.3,3.9,1.2,14.3
NPYLR7 agonist max-min,-1.0,3.8,5.8,-9.1,-0.1,-10.2,-5.2,2.7,1.8,2.4

Complete entries from above. Values in the order: NPYLR7 agonist | NPYLR7 agonist max-min
Profile of `O=C(NCc1ccccc1C(F)(F)F)c1cc(COc2ccc(F)cc2F)on1` = 8.3 | 5.8
Profile of `CCN1C(=O)N(CCc2ccccc2)C2(CCN(Cc3cccn3-c3ccc(Cl)cn3)CC2)C1=O` = -0.2 | -8.4

The list goes on.
#61 COc1cccc(CNC(=O)C2CCN(C(=O)CNC(=O)C34CC5CC(CC(C5)C3)C4)CC2)c1
#62 CC(C)(C)n1ncc2c(=O)n(NC(=O)Cc3ccc([N+](=O)[O-])cc3)cnc21
#63 CCCn1cc(C(=O)CSc2ncc(C#N)c(N)n2)c2ccccc21
#64 Cc1[nH]nc2ncc(C(=O)N3CCC(OCc4ccccc4)CC3)cc12
#65 COCCCN(CC(=O)N(CCc1ccc(OC)c(OC)c1)Cc1sccc1C)C(=O)Nc1ccc(Cl)cc1Cl
#66 Cc1cc(-n2c(C)cc(C(=O)CSc3nnc(NC4CC4)s3)c2C)no1
#67 CCOCCCN(Cc1nc(C(=O)OC)cs1)C(=O)Nc1ccc(Cl)cc1
#68 Cc1cccc(NC(=O)COc2coc(CN3CCc4ccccc43)cc2=O)c1
#69 O=C(NCCc1ccccc1)C(C1CCCC1)N1CCN(C(=O)c2cccc(Br)c2)CC1 (stereo not given)
#70 CCc1cc(C(=O)Nc2cccnc2N2CCOCC2)sc1C
assay / entry,61,62,63,64,65,66,67,68,69,70
NPYLR7 agonist,26.1,-1.7,-2.0,21.7,6.6,1.9,21.0,4.7,-3.0,-0.8
NPYLR7 agonist max-min,25.3,-6.4,-5.3,11.7,11.5,1.0,33.4,1.9,-2.7,-0.9

#71 CN(C)c1ccc2c(c1)C(=O)C(=C1N(C)c3ccccc3C1(C)C)P2(=S)N1CCOCC1 (stereo not given)
#72 CCC(C)n1c(=S)[nH]c2sc3c(c2c1=O)CCCC3 (stereo not given)
#73 CNc1nc(N2CCN(c3ncccn3)CC2)nc2c1C(=O)CC(C)(C)C2
#74 N=c1c2c(-c3ccccc3)c(-c3ccccc3)n(Cc3ccco3)c2ncn1CCCn1ccnc1
#75 COCCNC(=O)c1coc(N2CCN(Cc3ccccc3C#N)C2=O)n1
#76 O=C(Nc1c(-c2ccc(Cl)cc2)nc2ccccn12)C1CC1
#77 C=CC(C)(C#CCN(CC)CC)OC(C)=O (stereo not given)
#78 CCN(CC)C(=O)c1sc(NC(=O)CCc2ccccc2)c(C(=O)OC(C)C)c1C
#79 CCn1ccc2c(CN3CCOCC(CN(C)C)C3)cccc21 (stereo not given)
#80 CCOC(=O)c1nc(C(=O)OCC)nc(C(=O)OCC)n1
assay / entry,71,72,73,74,75,76,77,78,79,80
NPYLR7 agonist,2.3,-6.0,-9.8,-7.8,-7.6,-4.3,-8.4,-6.2,0.9,6.7
NPYLR7 agonist max-min,0.0,-8.8,-15.5,-15.8,-8.9,-3.5,-17.4,1.7,4.7,9.7

#81 CCOC(=O)Cc1csc(NC(=S)NC(=O)c2cccs2)n1
#82 O=C(Nc1cc(S(=O)(=O)N2CCOCC2)ccc1N1CCOCC1)c1cccc2ncccc12
#83 COc1ccc(-n2ccnc2CN2CCC3(CC2)CN(C)CCN3C)cc1
#84 C#CCNC(=O)CN(C)C(C)c1ccc(Cl)cc1 (stereo not given)
#85 CCC(=O)N1c2ccccc2N=C2CC(C)(C)CC(=O)C2C1c1cccnc1 (stereo not given)
#86 CCC(=O)Oc1ccc2c(-c3cc4cccc(OC)c4oc3=O)cc(=O)oc2c1
#87 O=C(CCC(=O)NC1CCCC1)NCc1cnc2ccccc2c1
#88 O=C(c1ccc(Cn2cccn2)o1)N1CCC2(CC1)C(=O)Nc1ccccc12
#89 O=S(=O)(Nc1ccc2ccccc2c1)c1ccc2c(c1)OCCO2
#90 COc1cccc(Nc2nc(C(N)CO)cs2)n1 (stereo not given)
assay / entry,81,82,83,84,85,86,87,88,89,90
NPYLR7 agonist,0.5,23.5,20.9,-1.1,-1.9,-2.7,0.6,-2.4,6.5,-3.2
NPYLR7 agonist max-min,5.1,12.3,11.7,-0.6,-4.9,4.8,-3.2,-9.2,2.1,-8.6

#91 COc1cccc(-c2nc(CSc3nc(-c4ccncc4)cc(=O)[nH]3)c(C)o2)c1OC
#92 CNc1cc(-c2cccc(S(C)(=O)=O)c2)ncn1
#93 CCOC(=O)CCc1c(C)nc2ncnn2c1N1CCC(N(C)C(C)=O)C1 (stereo not given)
#94 Cn1c(=O)c2c(nc(CN3CCOCC3)n2CCN2CCOCC2)n(C)c1=O
assay / entry,91,92,93,94
NPYLR7 agonist,0.2,4.4,17.4,1.2
NPYLR7 agonist max-min,-1.7,0.2,8.1,-0.5

Assay outcomes (PubChem)
